Assay outcomes as filed in PubChem.
AF4-AF9 inh – MLL-AF4/AF9 protein interaction inhibition; inhibition, % at 10 µM; hit rate 0.47% among 350,000; AlphaScreen, biotin-AF4 peptide binding to FLAG-AF9;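 active = every replicate reaching a set inhibition limit, whatever the replicate mean, cut at about 25% in these data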;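 also: 0% = plate neutral control median and 100% = total signal loss; the record names both 10 and 1 µM as test concentration; the first replicate is given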
Target sequence (P42568 whole entry, looked up): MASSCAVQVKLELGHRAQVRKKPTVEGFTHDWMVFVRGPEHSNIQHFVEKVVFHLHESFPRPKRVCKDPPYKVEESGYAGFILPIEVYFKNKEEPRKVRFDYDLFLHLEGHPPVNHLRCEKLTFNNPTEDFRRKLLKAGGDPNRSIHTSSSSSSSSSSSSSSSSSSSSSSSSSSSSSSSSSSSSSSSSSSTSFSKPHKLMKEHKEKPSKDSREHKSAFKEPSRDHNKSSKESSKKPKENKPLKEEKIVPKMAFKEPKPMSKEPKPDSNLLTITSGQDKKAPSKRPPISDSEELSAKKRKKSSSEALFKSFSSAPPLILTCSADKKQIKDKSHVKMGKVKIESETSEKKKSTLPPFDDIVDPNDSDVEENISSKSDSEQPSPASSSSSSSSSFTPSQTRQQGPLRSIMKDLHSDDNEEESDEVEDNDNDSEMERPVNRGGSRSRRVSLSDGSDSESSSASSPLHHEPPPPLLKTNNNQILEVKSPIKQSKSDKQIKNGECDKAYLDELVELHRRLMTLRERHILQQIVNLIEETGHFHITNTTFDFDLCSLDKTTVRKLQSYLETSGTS
rRNA inh HTS – selective bacterial rRNA inhibition in E. coli | hit rate 1.6% among 350,000 | E. coli WT GFP vs humanized-ribosome RFP mutants, fluorescence, 24 h; stronger effect = lower value; DMSO median 0, no signal -100 | GFP signal change (wild-type ribosome), % (test concentration not listed) | AID 720706;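 active = significant combined selectivity score with lowered wild-type GFP, culture density cut under 30%, mutant RFP and density less affected; inactive = any of these conditions unmet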; also: one replicate is shown; some compounds called inactive have numbers as strong as hits
rRNA inh HTS OD600 – further read-out of rRNA inh HTS, marked with its call; OD600 change, %; measured here: OD600 growth;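 optical density of the mix in the first replicate; 0 = DMSO median and -100 = no signal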
rRNA inh HTS RFP – recorded beside rRNA inh HTS, whose call it bears; RFP signal change, %; measured here: RFP humanized mutant strains;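 first replicate; 0 = DMSO median and -100 = no signal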
An asterisk follows results filed as active; & = joins results of further samples. Only part of the results is shown, so the mix of outcomes need not match the whole.

no. | SMILES | AF4-AF9 inh | rRNA inh HTS RFP | rRNA inh HTS | rRNA inh HTS OD600
1 | C[C@H](CO)N1C[C@H](C)[C@@H](CN(C)S(C)(=O)=O)OCCCC[C@H](C)Oc2ccc(NC(=O)Cc3ccccc3)cc2C1=O | 0.7 | -2.0 | 1 | 0
2 | C[C@H](CO)N1C[C@H](C)[C@H](CN(C)S(=O)(=O)c2cn(C)cn2)Oc2ncc(-c3ccc(F)cc3)cc2C1=O | 0.7 | -2.6 | 3 | 11
3 | O=c1c2cc3ccccc3nc2ncn1CCc1ccc(Cl)cc1 | -0.3 | -2.2 | -8 | 8
4 | CCCNC(=O)[C@@H]1[C@@H](CO)[C@@H]2Cn3c(ccc(-c4ccccc4)c3=O)[C@@H]2N1CC1CC1 | -0.4 | 0.3 | -2 | -8
5 | CO[C@H]1CN(C)C(=O)c2cc(NC(=O)c3cc(C)on3)ccc2OC[C@@H](C)N(C(C)=O)C[C@@H]1C | -0.7 | -1.4 | 1 | -4
6 | CC(C)C(=O)Nc1ccc2c(c1)C(=O)N(C)[C@H]1CC[C@@H](CC(=O)O)O[C@@H]1CO2 | -2.0 | 1.0 | 0 | -7
7 | C[C@@H]1CN([C@H](C)CO)C(=O)c2cccc(NC(=O)C3CC3)c2O[C@H]1CN(C)CC1CCCCC1 | 2.4 | -4.0 | -7 | -6
8 | O=CNc1cc(-c2ccccc2)cn2c(-c3ccc(F)c(Cl)c3)cnc12 | 2.0 | 16 | 0 | -5
9 | C[C@@H]1CN([C@@H](C)CO)S(=O)(=O)c2ccc(C#C[C@@H](C)O)cc2O[C@@H]1CN(C)C(=O)c1ccccc1 | -2.6 | -2.0 | -3 | -4
10 | C[C@@H]1CN([C@H](C)CO)C(=O)c2cccc(NC(=O)c3cnccn3)c2O[C@H]1CN(C)C(=O)Nc1ccc(C(F)(F)F)cc1 | -2.0 | -3.6 | -2 | 4
11 | CC(=O)N1CCCCN2[C@H](CO)[C@H](c3ccc(Br)cc3)[C@H]2C1 | -2.0 | 0.7 | 5 | 2
12 | COC(=O)c1cc2c(c3c4ccccc4n(S(=O)(=O)c4ccccc4)c13)C(=O)N(Cc1ccc(N(C)C)cc1)C2 | 0.9 | 5.8 | 9 | 9
13 | Cc1ccc(-c2cnc3c(c2)C(=O)N([C@@H](C)CO)C[C@@H](C)[C@@H](CN(C)C)O3)cc1 | -1.9 | 1.7 | 2 | -1
14 | COC(=O)c1ccc(CN2CC(=O)N3[C@@H](CO)[C@H](c4ccc(-c5ccccc5F)cc4)[C@@H]3C2)cc1 | 7.0 | 23 | 0 | -19
15 | O=S1(=O)N[C@H](Cc2ccccc2)COc2cc(N3CCC[C@@H]3CO)ccc21 | -1.6 | 2.8 | 2 | -3
16 | C[C@@H]1CN([C@H](C)CO)C(=O)c2cc(-c3ccc(C#N)cc3)cnc2O[C@@H]1CN(C)C(=O)Nc1ccc(F)cc1 | -4.1 | 3.1 | -1 | 5

Part of the list above, with each value named.
5. CO[C@H]1CN(C)C(=O)c2cc(NC(=O)c3cc(C)on3)ccc2OC[C@@H](C)N(C(C)=O)C[C@@H]1C
  AF4-AF9 inh = -0.7 | rRNA inh HTS RFP = -1.4 | rRNA inh HTS = 1 | rRNA inh HTS OD600 = -4

6. CC(C)C(=O)Nc1ccc2c(c1)C(=O)N(C)[C@H]1CC[C@@H](CC(=O)O)O[C@@H]1CO2
  AF4-AF9 inh = -2.0 | rRNA inh HTS RFP = 1.0 | rRNA inh HTS = 0 | rRNA inh HTS OD600 = -7

14. COC(=O)c1ccc(CN2CC(=O)N3[C@@H](CO)[C@H](c4ccc(-c5ccccc5F)cc4)[C@@H]3C2)cc1
  AF4-AF9 inh = 7.0 | rRNA inh HTS RFP = 23 | rRNA inh HTS = 0 | rRNA inh HTS OD600 = -19

Other structures follow:
no. | SMILES | AF4-AF9 inh | rRNA inh HTS RFP | rRNA inh HTS | rRNA inh HTS OD600
17 | O=C(c1cccc(F)c1)N1C[C@@H]2[C@H](c3ccccc31)[C@H](CO)N2C(=O)c1ccc(F)cc1 | -2.7 | -2.1 | 0 | -2
18 | C[C@H]1CN([C@@H](C)CO)C(=O)c2cc(N(C)C)ccc2O[C@H]1CN(C)C(=O)Nc1ccc2c(c1)OCO2 | -9.2 | -3.5 | 2 | 4
19 | C#CC(=O)CC1(CN(Cc2ccccc2)C(=O)OC(C)(C)C)CCCCC1 | -3.6 | -1.7 | 1 | -2
20 | CCS(=O)(=O)N1CCCCN2[C@H](CO)[C@@H](c3ccc(C#Cc4ccccc4OC)cc3)[C@H]2C1 | 4.9 | 12 | 4 | -3
21 | CNC[C@H]1Oc2ccc(NC(=O)Nc3ccc(C(F)(F)F)cc3)cc2CC(=O)N([C@H](C)CO)C[C@H]1C | 2.3 | 2.6 | -3 | 1
22 | O=C(Nc1cccc(C(F)(F)F)c1)Nc1nnc([C@@H]2C[C@H](O)[C@@H](CO)O2)s1 | -0.9 | -0.2 | -14 | -13
23 | COc1ccc(CN(C)C[C@H]2Oc3ccc(NC(=O)C4CCCCC4)cc3CC(=O)N([C@@H](C)CO)C[C@H]2C)cc1 | -1.7 | -0.6 | -3 | -6
24 | CCOC(=O)C1CCCN(C(=O)c2ccc(C(F)(F)F)nc2C)CC1 (configuration not stated) | -1.3 | 1.3 | 5 | 5
25 | CCC(c1nnnn1-c1ccc2c(c1)OCCO2)N1CCN(c2ncccn2)CC1 (configuration not stated) | 0.1 | 4.6 | 4 | 0
26 | CCC(=O)Nc1ccc2c(c1)C(=O)N(C)C[C@H](OC)[C@H](C)CN(C(=O)c1ccc(F)cc1)[C@H](C)CO2 | 0.4 | -0.6 | 0 | 1
27 | CCCC#Cc1ccc([C@@H]2[C@@H](CO)N3C(=O)CN(C(=O)CN4CCOCC4)C[C@H]23)cc1 | -9.2 | -4.3 | 3 | 6
28 | CCCOc1ccc(F)cc1-c1cc(C(=O)NCc2cccc(Cl)c2)[nH]n1 | 0.9 | 0.1 | -3 | -34
29 | CN1C(=O)c2cc(NC(=O)C3CCCC3)ccc2OC[C@@H]2O[C@H](CC(=O)NCC3CC3)CC[C@H]21 | -1.4 | -1.1 | 4 | 6
30 | C[C@H]1CN([C@@H](C)CO)C(=O)c2cc(/C=C/c3ccccc3)cnc2O[C@@H]1CN(C)Cc1ccccc1 | 21 | 3.6 | 2 | 6
31 | O=C(c1ccc2c(c1)OCO2)N1CC(=O)N2[C@@H](CO)[C@H](c3ccc(C#CCC4CCCC4)cc3)[C@@H]2C1 | 3.7 | 20 | 5 | -13
32 | CCC(C)C(NC(=O)c1ccccc1)C(=O)Nc1ccc(S(=O)(=O)Nc2cc(C)nc(C)n2)cc1 (configuration not stated) | -4.1 | -0.3 | -2 | 1
33 | CO[C@@H]1CN(C)C(=O)c2cc(NS(C)(=O)=O)ccc2OC[C@@H](C)N(Cc2nccs2)C[C@@H]1C | 0.0 | -1.6 | 1 | 0
34 | CNC[C@H]1OCCCC[C@H](C)Oc2ccc(NC(=O)NC(C)C)cc2C(=O)N([C@@H](C)CO)C[C@H]1C | -8.6 | -2.3 | 5 | -4
35 | O=C(NCc1ccc(F)cc1F)[C@@H]1CCCN1C(=O)[C@@H]1CCCN1C(=O)c1cccc2ccccc12 | -2.5 | -4.1 | -17 | -4
36 | Cc1ccc(S(=O)(=O)N2[C@@H]3CNC[C@H]2C3c2ccc(-c3cccc(F)c3)cc2)cc1 (some centres not stated) | -13&-8.0 | 21&-11 | -15&-59 | -40&-73
37 | OC[C@@H]1[C@H](c2ccc(-c3ccc(F)cc3)cc2)[C@H]2CN(Cc3cccnc3)CCCCN12 | 9.3 | 0.7 | 2 | -20
38 | Cc1ccc(-c2ccc3c(c2)O[C@@H](CN(C)Cc2cccc(C(=O)O)c2)[C@H](C)CN([C@@H](C)CO)S3(=O)=O)cc1 | 0.3 | 7.1* | -18* | -3.6*
39 | Cc1ccc(S(=O)(=O)N(C)C[C@@H]2Oc3ccc(NC(=O)Nc4c(C)noc4C)cc3C(=O)N([C@H](C)CO)C[C@H]2C)cc1 | -13 | -0.9 | 1 | 0
40 | CC1(C(=O)O)CCCN(C(=O)/C=C/c2ccccc2)C1 (configuration not stated) | -1.4 | -3.1 | -2 | 10
41 | O=C(NCc1ccccc1)[C@@H]1[C@@H](CO)[C@@H]2Cn3c(cccc3=O)[C@H]1N2Cc1ccccn1 | 0.2 | -2.8 | 2 | 11
42 | CC(=O)c1cccc(NC(=O)C2Cc3c(-c4cccc(C(N)=O)c4)ccnc3O2)c1 (configuration not stated) | -0.8 | -0.5 | -24 | -19
43 | C[C@@H]1CN([C@@H](C)CO)S(=O)(=O)c2ccc(C#Cc3ccccc3)cc2O[C@H]1CN(C)C | 9.0 | 16 | 2 | -6
44 | C[C@@H]1CCCCO[C@@H](CN(C)Cc2ccncc2)[C@H](C)CN([C@H](C)CO)C(=O)c2cc(NS(C)(=O)=O)ccc2O1 | -5.1 | -2.2 | 2 | 5
45 | C[C@H](CO)N1C[C@H](C)[C@@H](CN(C)C)Oc2ccc(NC(=O)CCCN(C)C)cc2C1=O | -2.8 | -0.4 | 2 | 4
46 | C[C@H]1CCCCO[C@H](CN(C)C(=O)NC2CCCCC2)[C@@H](C)CN([C@@H](C)CO)C(=O)c2cc(N(C)C)ccc2O1 | 6.5 | 0.3 | -2 | 0
47 | COCCCNC(=O)c1csc([C@H]2C[C@H](O)[C@@H](CO)O2)n1 | 0.8 | -0.2 | 15 | 15
48 | COc1ccc(S(=O)(=O)Nc2ccc3c(c2)C(=O)N([C@H](C)CO)C[C@H](C)[C@H](CN(C)Cc2ccc4c(c2)OCO4)O3)cc1 | 1.0 | 2.1 | 4 | -2
49 | Cc1cccc(S(=O)(=O)N[C@@H]2CC[C@H](CCNS(=O)(=O)c3ccccc3F)O[C@@H]2CO)c1 | -0.1 | 1.7 | -5 | -5
50 | CC=Cc1ccc2n(c1=O)C[C@H]1[C@H](CO)[C@@H](C(=O)NCC)N(C(=O)c3cccnc3)[C@@H]21 (mixture of isomers) | -5.1 | -3.1 | 3 | 8
51 | C[C@@H]1CN([C@@H](C)CO)C(=O)c2cc(NC(=O)Nc3ccc4c(c3)OCO4)ccc2O[C@@H](C)CCCCO[C@@H]1CN(C)Cc1ccccc1 | 8.7 | -5.2 | -5 | 0
52 | CCCNC(=O)Nc1ccc2c(c1)C(=O)N(C)[C@H]1CC[C@@H](CC(=O)NCC3CCCCC3)O[C@@H]1CO2 | -0.4 | -0.5 | -4 | -2
53 | CCCNC(=O)N1CC2(C1)CN(C(=O)Nc1ccc(F)cc1)[C@@H](CO)c1[nH]c3cc(OC)ccc3c12 | 1.6 | -3.0 | -1 | 4
54 | C[C@@H]1CN([C@@H](C)CO)C(=O)Cc2cc(NC(=O)C3CC3)ccc2O[C@@H]1CN(C)Cc1ccc2c(c1)OCO2 | -2.5 | -1.6 | 1 | 11
55 | N#C[C@H]1[C@@H](c2ccccc2)[C@@H](CO)N1S(=O)(=O)c1ccc(-c2ccccc2)cc1 | -1.2 | 0.4 | -5 | -29
56 | Cc1ccc(F)cc1C(=O)N1CCCCC1c1cc(C(=O)NC(C)C)no1 (configuration not stated) | 0.1 | 2.9 | 18 | 17
57 | CO[C@@H]1CN(C)C(=O)c2ccc(NS(=O)(=O)c3ccc(Cl)cc3)cc2OC[C@@H](C)N(C(=O)NC(C)C)C[C@H]1C | -1.6 | 0.7 | -2 | -4
58 | COc1ccc(S(=O)(=O)Nc2ccc3c(c2)C(=O)N([C@@H](C)CO)C[C@H](C)[C@@H](CN(C)C(=O)Nc2cccc4ccccc24)O3)cc1 | -1.0 | 2.8 | -3 | -7
59 | CC(C)NC(=O)N(C)C[C@H]1Oc2ncc(C#Cc3ccc(F)cc3)cc2C(=O)N([C@@H](C)CO)C[C@@H]1C | -0.2 | -0.5 | -3 | -10
60 | CCN(CC)c1ncnc2c1ncn2[C@H]1CN(C2CCCC2)C[C@@H](CO)O1 | -1.6 | 3.4 | 8 | 15
61 | COCC(=O)N1[C@@H](CO)[C@H](c2ccccc2)[C@@H]1CN(C)C(=O)c1cccnc1 | -1.6 | -1.5 | 5 | 9
62 | COc1ccc(NC(=O)N(C)C[C@H]2OCCCC[C@@H](C)Oc3ccc(NC(=O)Nc4c(C)noc4C)cc3C(=O)N([C@H](C)CO)C[C@H]2C)cc1 | 0.5 | 3.7 | -7 | 17
63 | O=C(OCc1ccccc1)N1CCC2CC1c1ccc(-c3cccc(F)c3)cc12 (configuration not stated) | -0.7 | 3.1 | 16 | 10
64 | O=C(C[C@H]1CC[C@@H]2[C@H](COC[C@H](O)CN2S(=O)(=O)c2ccccc2F)O1)NCc1ccccc1Cl | 2.0 | -1.9 | -1 | -10

By substructure: those above with a CF3 group (4)
no. | SMILES | AF4-AF9 inh | rRNA inh HTS RFP | rRNA inh HTS | rRNA inh HTS OD600
10 | C[C@@H]1CN([C@H](C)CO)C(=O)c2cccc(NC(=O)c3cnccn3)c2O[C@H]1CN(C)C(=O)Nc1ccc(C(F)(F)F)cc1 | -2.0 | -3.6 | -2 | 4
21 | CNC[C@H]1Oc2ccc(NC(=O)Nc3ccc(C(F)(F)F)cc3)cc2CC(=O)N([C@H](C)CO)C[C@H]1C | 2.3 | 2.6 | -3 | 1
22 | O=C(Nc1cccc(C(F)(F)F)c1)Nc1nnc([C@@H]2C[C@H](O)[C@@H](CO)O2)s1 | -0.9 | -0.2 | -14 | -13
24 | CCOC(=O)C1CCCN(C(=O)c2ccc(C(F)(F)F)nc2C)CC1 (configuration not stated) | -1.3 | 1.3 | 5 | 5
